Screens as filed in PubChem.
GIV-Gai inh – inhibitors of GIV peptide binding to Galpha-i3, primary screen, biochemical, fluorescence polarization, FITC-GIV GBA peptide, rat Galphai3; percent of control (FP), % (test concentration not listed); Guanine nucleotide-binding protein G(i) subunit alpha-3 (Rattus norvegicus), P08753; 90 min; active compounds read low; scaled: aluminum fluoride 0%, vehicle 100%; 210,000 compounds, 0.42% hits;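 active = replicate mean at 85% of control or lower, very high polarization wells dropped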;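 also: lower values mean more displacement of the GIV peptide from Galpha-i3; wells of about 15 µL received 100 nL stock; the first replicate is given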
Target sequence (P08753 whole entry, looked up): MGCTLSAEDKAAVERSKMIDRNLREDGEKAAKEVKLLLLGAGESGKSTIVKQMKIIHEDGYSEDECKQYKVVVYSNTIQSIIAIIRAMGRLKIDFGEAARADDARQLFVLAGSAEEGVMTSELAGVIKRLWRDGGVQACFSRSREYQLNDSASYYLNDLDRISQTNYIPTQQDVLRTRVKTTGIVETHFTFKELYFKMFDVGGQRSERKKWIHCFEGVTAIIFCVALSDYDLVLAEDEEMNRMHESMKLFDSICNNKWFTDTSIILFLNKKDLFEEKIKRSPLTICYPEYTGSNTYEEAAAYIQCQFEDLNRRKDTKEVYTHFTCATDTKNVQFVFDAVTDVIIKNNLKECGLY
An asterisk follows results filed as active. A portion of the library; count on the stated rates, not on these rows.

SMILES	GIV-Gai inh
CC1(C)CC(=O)C2=C(C1)Nc1ccc3ccccc3c1C2c1ccc(Cl)cc1Cl (stereo not drawn)	111
CCn1ncc(Cl)c1C(=O)N1CCCC1c1c(C)noc1C (stereo not drawn)	98
Cc1c(C(=O)Nc2nc3ccccc3s2)sc2ncn(Cc3ccccc3F)c(=O)c12	99
O=C1CCC(C(=O)N2CCOCC2)(c2ccccc2)N1Cc1ccccc1 (stereo not drawn)	108
CCc1ccc(-n2c(=S)sc3c(=O)n(-c4ccccc4C)c(=S)[nH]c32)cc1	116
Cc1ccccc1N/C(SCc1ccc(Cl)cc1)=C(/C#N)C(=O)NCc1ccco1	105
C=C(CSc1nnc2n(-c3ccc(C)cc3)c(=O)c3c4c(sc3n12)CCC4)c1ccccc1	107
Cc1[nH]c(C)c(S(=O)(=O)NCc2ccco2)c1-c1nnc(C2CC2)o1	108
O=C(NC1CCCC1)c1cnc(N2CCOCC2)c2ccccc12	103
CC(C)NC(=O)CCn1c(=O)c2ccccc2n2c(=O)n(Cc3ccccc3Cl)nc12	99
O=C(CCc1nc(CSc2nc3ccccc3s2)no1)Nc1nccs1	108
CCCc1cc(C2CCCN2Cc2cc(F)cc(F)c2)no1 (stereo not drawn)	98
O=C(CCCn1c(=S)[nH]c2ccc(Br)cc2c1=O)N1CCN(c2ccccc2)CC1	106
Cc1ccc(-c2csc3c2ncn2c(=O)n(CC(=O)NCc4ccccc4)nc32)cc1	99
CC(=O)C1=NN(c2cccc(Cl)c2)C2(S1)SC(c1ccc(C)cc1)(c1ccc(C)cc1)c1ccccc12 (stereo not drawn)	105
CCCCCCN1C(=O)C(=O)/C(=C(\O)c2ccc(C)cc2)C1c1ccccc1Cl (stereo not drawn)	103
COC(=O)c1c(C)oc2ccc(N(C(=O)c3cccc([N+](=O)[O-])c3)S(=O)(=O)c3ccc(C)cc3)cc12	118
CCOc1ccc(N2CC(O)(c3ccc(OC)cc3)[N+]3=C2SCCC3)cc1 (stereo not drawn)	111
COc1cc(C=Nc2c(C)n(C)n(-c3ccccc3)c2=O)cc(Br)c1O	104
CC1(C)CC(=O)C2=C(C1)c1c(ccc3ccccc13)NC2c1cc2ccccc2[nH]1 (stereo not drawn)	105
CCCCNc1ncc(C(=O)OC)c2ccccc12	104
COc1cccc(-c2nc(C)c(-c3ccc(SCc4ccccc4)nn3)s2)c1	100
NS(=O)(=O)c1ccc(CCNc2ncnc3c2c(-c2ccccc2)cn3-c2cccc(C(F)(F)F)c2)cc1	114
O=C(CCC1CCCCC1)Nc1nnc2n1CCCS2	100
COc1ccc(N2C(=O)C3ON(C4SC(=S)N(C)C4(C)C)C(c4ccccc4)C3C2=O)cc1 (stereo not drawn)	115

The list continues:
SMILES	GIV-Gai inh
Cc1csc(-c2csc(S(=O)(=O)Nc3ccc(C(C)C)cc3)c2)n1	96
c1cc2c(cc1-c1nnc(C3CCC3)o1)OCO2	101
COc1ccc(CC(=O)Nc2cc3c(cc2S(=O)(=O)C2CCCCC2)n(C)c(=O)c(=O)n3C)cc1	98
CCOCC(=O)Nc1c(C)nc2sccn2c1=O	104
OC(CN1CCN(Cc2ccccc2)CC1)Cn1c2ccc(Br)cc2c2cc(Br)ccc21 (stereo not drawn)	122
COc1cccc(N=C2SC(C(=O)Nc3ccc(Br)cc3)CC(=O)N2C)c1 (stereo not drawn)	115
CCc1ccc(N/C(SCc2cccc([N+](=O)[O-])c2)=C(/C#N)C(=O)NCc2ccc3c(c2)OCO3)cc1	105
COc1ccc(N2N=C(C(C)=O)SC23c2ccccc2C(c2ccc(Cl)cc2)=NN3c2ccccc2)cc1 (stereo not drawn)	108
O=C(Nc1cc(C(=O)N2CCN(c3ccc(F)cc3)CC2)ccc1N1CC2CC(C1)c1cccc(=O)n1C2)c1cccnc1 (stereo not drawn)	110
O=C1C=C(c2cccs2)C[C@H](c2cccs2)[C@H]1n1nnc2ccccc21	110
CCNC(=O)C(=O)Nc1cccc(C(F)(F)F)c1	115
CC(=O)NC(Cc1c[nH]c2ccccc12)C(=O)NCCOc1ccccc1-c1ccccc1 (stereo not drawn)	110
COc1ccc(C2Oc3c(OC)cccc3C3CC(c4cccs4)=NN32)cc1 (stereo not drawn)	107
CCOC(=O)C(NC(=O)c1cccc(Cl)c1)(Nc1sc2c(c1C#N)CCC(C)C2)C(F)(F)F (stereo not drawn)	100
O=[N+]([O-])c1ccc(C2N(c3ccc(F)cc3)CCN2c2ccc(F)cc2)cc1	105
CCOC(=O)C1CCN(S(=O)(=O)c2ccc3c(c2)-c2oncc2CO3)CC1	109
O=C(Nc1ccc(Br)cc1F)c1cc(S(=O)(=O)N2CCN(Cc3ccc4c(c3)OCO4)CC2)ccc1F	108
CC1=C(C(=O)Nc2ccccc2)C(c2ccco2)C(C#N)=C(SCC(=O)Nc2cccc(Cl)c2C)N1 (stereo not drawn)	113
COc1ccc(NS(=O)(=O)c2ccc3c(c2)NC(=O)C(CC(=O)N2CCCC2)CS3)cc1 (stereo not drawn)	104
COc1ccc(CNC(=O)C2(C)CCCN(S(=O)(=O)c3ccc(NC(C)=O)cc3)C2)cc1 (stereo not drawn)	107
CCOC(=O)C1=C(C)N=c2s/c(=C/c3ccc(N4CCOCC4)o3)c(=O)n2C1c1ccc(OC)cc1OC (stereo not drawn)	115
O=C1C=C(c2ccccc2)C[C@H](c2cccs2)[C@H]1n1nnc([N+](=O)[O-])n1	107
CC(c1nnc(SCC(=O)c2ccc(Cl)cc2)n1C)N1C(=O)COc2ccccc21 (stereo not drawn)	96
N#Cc1ccccc1N1C(=O)C2C3c4ccccc4C(c4ccccc43)C2C1=O (stereo not drawn)	99
CCCNC(=O)c1ccc2c(c1)S(=O)(=O)N=CN2CCc1ccccc1	106

(listing goes on)
SMILES	GIV-Gai inh
Cn1c(=O)oc2cc(-c3noc(-c4cc(F)cc(F)c4)n3)ccc21	94
COc1ccc(-c2cc(C(F)(F)F)n3nc(C(=O)NCCCn4ccnc4)cc3n2)cc1	106
COc1ccccc1N1CCN(C(=O)c2cc3nc(-c4ccc5c(c4)OCO5)cc(C(F)(F)F)n3n2)CC1	112
COc1ccc(N2CCN(C(=O)CCCCCn3c(=S)[nH]c4ccc(Br)cc4c3=O)CC2)cc1	103
CCOC(=O)c1sc2nc(CC(=O)OC)nc(NCCC3=CCCCC3)c2c1C	97
COc1ccc(-c2cc(C(=O)N3CCCC3c3cc(C)no3)no2)cc1OC (stereo not drawn)	101
COc1ccc(NC(=O)CSc2nc3n[nH]c(C)c3c(=N)n2-c2cccc(Cl)c2)c(OC)c1	104
COc1cc(-c2nc(C=Nc3ccc(Br)cc3)c(O)o2)cc(OC)c1OC	106
Cc1cccc(NC(=O)COc2cccc3c(=O)n(C)ccc23)c1	98
Cc1nc(N2CCC(C)CC2)c2c(C)c(C(=O)N(C)CCc3ccccn3)sc2n1	104
O=S(=O)(c1ccccc1)N(CC(O)CN(Cc1ccccc1)Cc1ccccc1)c1cccc2ccccc12 (stereo not drawn)	111
COc1ccc(S(=O)(=O)Nc2ccc3c(c2)c2c(n3S(=O)(=O)c3ccc(OC)cc3)CCC2)cc1	110
CCOc1ccccc1N(C)S(=O)(=O)c1ccc2[nH]cc(C(=O)N3CCC4(CC3)OCCO4)c(=O)c2c1	109
N#CC1=C(N)N(c2cccc(C(F)(F)F)c2)C2=C(C(=O)CCC2)C1c1cccc([N+](=O)[O-])c1 (stereo not drawn)	107
O=C(NCc1ccc2c(c1)OCO2)c1cccc(NC(=O)c2nsc3ccccc23)c1	105
COc1ccc(-c2cc(Oc3cccc(C(=O)Nc4cccc(F)c4)c3)ncn2)cc1	106
COc1ccc(/C=N/c2oc(-c3ccccc3)c(-c3ccccc3)c2C#N)cc1Br	121
CCOC(=O)C1=C(C)N=c2s/c(=C/c3ccc(N(CC)CC)o3)c(=O)n2C1c1ccc(OC)cc1OC (stereo not drawn)	121
CCCOc1ccc(CNC(=O)CC(C)(C)CC2=NS(=O)(=O)c3ccccc3N2)cc1OCCC	98
c1ccc2c(c1)CCN2Cc1cn2ccccc2n1	151
CC1CCCN(Cn2nc(-c3ccccc3Cl)n(-c3ccccc3)c2=S)C1 (stereo not drawn)	99
CCOC(=O)C1CCCN(C(=O)c2ccc3c(=O)n(Cc4ccccc4OC)c(=S)[nH]c3c2)C1 (stereo not drawn)	113
CC1(C)CC(=O)C2=C(C1)c1c(ccc3ccccc13)NC2c1ccccn1 (stereo not drawn)	109
COc1ccc(-c2nc3c4cc(I)ccc4c4ccccc4c3[nH]2)c(OC)c1	102
Cn1c(CN2CCN(C(=O)Nc3ccccc3Cl)CC2)nc2cc(C(=O)N3CCCC3)ccc21	102

Shown in CSV form: part of the list above.
compound,GIV-Gai inh
COc1cc(-c2nc(C=Nc3ccc(Br)cc3)c(O)o2)cc(OC)c1OC,106
Cc1cccc(NC(=O)COc2cccc3c(=O)n(C)ccc23)c1,98

The listing continues:
SMILES	GIV-Gai inh
CC1(C)CC(=O)C2=C(C1)OC1=C(C(=O)CC(C)(C)C1)C2c1cc2c(cc1Cl)OCO2	105
O=C(/C=C(\O)c1ccccc1)C(=O)/C=C1\NC2(CCCCC2)Cc2ccccc21	112
CCOC(=O)C1=C(CSc2nc(CC)c(C)cc2C#N)OC(N)=C(C#N)C1c1cccc(OCc2ccccc2)c1 (stereo not drawn)	117
CCn1nc(C)n2cc(S(=O)(=O)NCc3ccco3)cc2c1=O	103
Cc1ccc(S(=O)(=O)Nn2c(SCC(=O)N3CCN(c4ccccc4)CC3)nc3ccccc3c2=O)cc1	103
CN(CCc1noc(-c2ccc(C(=O)NC3CC3)cc2)n1)C(=O)Nc1ccccc1	106
CCOc1c(C(=O)OC)sc2ccc(NC(=O)Nc3ccccc3OC)cc12	107
COC(=O)C1=C(C)NC(SCC(=O)Nc2cccc(OC)c2)=C(C#N)C1c1ccccc1Cl (stereo not drawn)	106
NS(=O)(=O)c1ccc(CCNC(=O)CSc2nc3ccccc3c(=O)n2CCC(=O)NCCc2ccccc2)cc1	102
Cc1cc(Nc2ccccc2)nc(N2CCN(C(=O)Nc3ccc(F)cc3)CC2)n1	103
CC1=C(c2ccc(Cl)cc2)S(=O)(=O)N=C1N1CCCN(C(=O)NC(C)C)CC1	105
COc1ccc(F)cc1S(=O)(=O)N(C)CC1(C)CCOCC1	102
Cc1ccc(-c2ncccc2C(=O)N2CCC(C(=O)N3CCN(c4ccccc4)CC3)CC2)cc1	105
O=C1C2OCC(O2)[C@@H]2[C@@H]1[C@@H]1C=Cc3ccccc3N1[C@@H]2C(=O)c1ccccc1 (stereo partly drawn)	140
COC(=O)c1ccc(N2CCN(C)CC2)c(NC(=O)c2cc(OC)cc(OC)c2)c1	108
CCCc1cc(C2CCCN2Cc2ccc(OC)c(OC)c2)no1 (stereo not drawn)	103
O=C(Nc1cc(F)c2[nH]c(=O)ccc2c1)C1CC1	99
O=C(NCc1nc2cccnc2n1Cc1ccccc1)c1ccccc1Br	131
S=c1sc2c(s1)SC1CCCCCCCCCCC1S2 (stereo not drawn)	121
COC(=O)C1=C(C)NC(C)=C(C(=O)OC)C1c1ccc(OC(=O)c2oc3ccccc3c2C)c(OC)c1	105
COc1ccc(NC(=O)Cn2nc(-c3nc(-c4ccc(C)cc4)no3)c3ccccc32)cc1	101
CCOc1cccc2c1OC(c1ccccc1Cl)N1N=C(c3cccnc3)CC21 (stereo not drawn)	116
ClC(Cl)(Cl)C1=Nc2ccccc2C(c2ccccc2)(c2ccccc2)O1	119
CCOC(=O)CNC(=O)NCCC1CCN(C(=O)Nc2cccc(Cl)c2)CC1	101
COc1ccc(N(CC(O)Cn2c3ccccc3c3ccccc32)S(=O)(=O)c2ccc(C)cc2)cc1 (stereo not drawn)	114

Later entries.
SMILES	GIV-Gai inh
O=C(Cn1cnn2cc3c(c2c1=O)CCCC3)N1CCCC1	97
COc1ccc(NC(=O)Cn2c3ccccc3n3c(=O)cc(-c4ccc(Cl)cc4)nc23)c(OC)c1	98
COCc1oc2ccc(NS(=O)(=O)c3ccc(Cl)cc3)cc2c1C(=O)OC	110
CCc1nc(CN2C(=O)COc3cc(S(=O)(=O)N4CCc5ccccc5C4)c(C)cc32)no1	102
O=C1CCC(=O)N1CC(O)Cn1c2ccc(Br)cc2c2cc(Br)ccc21 (stereo not drawn)	106
CC(C)c1csc(-c2csc(S(=O)(=O)Nc3ccc(Br)cc3F)c2)n1	97
O=C(c1ccccc1Cl)N1CCc2c([nH]c3ccccc23)C1c1ccc(Cl)cc1 (stereo not drawn)	105
CCc1ccc(-c2ccc(=O)n(CCc3nc(-c4ccccc4)no3)n2)cc1	102
CCS(=O)(=O)c1c(S(=O)(=O)CC)c2c3ccccc3ccn2c1C(=O)c1ccccc1	103

Of the compounds above, 12 contain an NH in an aromatic ring.
SMILES	GIV-Gai inh
CCc1ccc(-n2c(=S)sc3c(=O)n(-c4ccccc4C)c(=S)[nH]c32)cc1	116
Cc1[nH]c(C)c(S(=O)(=O)NCc2ccco2)c1-c1nnc(C2CC2)o1	108
O=C(CCCn1c(=S)[nH]c2ccc(Br)cc2c1=O)N1CCN(c2ccccc2)CC1	106
CC1(C)CC(=O)C2=C(C1)c1c(ccc3ccccc13)NC2c1cc2ccccc2[nH]1 (stereo not drawn)	105
CC(=O)NC(Cc1c[nH]c2ccccc12)C(=O)NCCOc1ccccc1-c1ccccc1 (stereo not drawn)	110
COc1ccc(N2CCN(C(=O)CCCCCn3c(=S)[nH]c4ccc(Br)cc4c3=O)CC2)cc1	103
COc1ccc(NC(=O)CSc2nc3n[nH]c(C)c3c(=N)n2-c2cccc(Cl)c2)c(OC)c1	104
CCOc1ccccc1N(C)S(=O)(=O)c1ccc2[nH]cc(C(=O)N3CCC4(CC3)OCCO4)c(=O)c2c1	109
CCOC(=O)C1CCCN(C(=O)c2ccc3c(=O)n(Cc4ccccc4OC)c(=S)[nH]c3c2)C1 (stereo not drawn)	113
COc1ccc(-c2nc3c4cc(I)ccc4c4ccccc4c3[nH]2)c(OC)c1	102
O=C(Nc1cc(F)c2[nH]c(=O)ccc2c1)C1CC1	99
O=C(c1ccccc1Cl)N1CCc2c([nH]c3ccccc23)C1c1ccc(Cl)cc1 (stereo not drawn)	105
